# Vif TR-FRET: inhibitors of Vif binding to APOBEC3G peptide, primary screen, biochemical, TR-FRET, GST-Vif 1-94, biotin-A3G peptide, dose response retest (AID 1117319) | TR-FRET GST-Vif / biotin-A3G peptide binding; higher % means a stronger effect; test concentration not given here; strong numbers were not always called active | inhibition, %; hits with a dose series show IC50 in µM | hit rate 0.57% among 260,000;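 active = above the screen mean plus three standard deviations and confirmed in dose response; inconclusive = results disagree or hit not tested in dose response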;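 also: Vif residues 1-94 fused to GST binding biotinylated APOBEC3G peptide 110-148; 0% = full assay without inhibitor and 100% = GST in place of GST-Vif; retest series ran down from 100 µM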
# RanGTP-Imp inh: disruptors of Ran-importin-beta complex formation – biochemical, FRET, CFP-Ran, YFP-importin-beta, homogeneous, primary screen; cell-free CFP-Ran/YFP-importin-beta FRET ratio; inhibition, % (concentration not given with the values); hit rate 1.1% among 300,000;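 active = most replicates above 15%; inconclusive = exactly half above 15%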;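 also: 0% = DMSO wells and 100% = Ran loaded with GDP instead of GTP; wells of about 40 µL received 100 nL stock; the first replicate is given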
# HNF4A DNA FP: change in binding of human HNF4 alpha to DNA; HNF4a-FITC DNA binding, fluorescence polarization, 1 h; activity change, % at 10 µM; hit rate 0.3% among 360,000; AID 1224865; in the data active = activity change above about 30%, passing the limit was not always enough;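 also: controls were the assay level and a saturating level of protein; the project sought stronger binding though the title names inhibitors; some compounds called inactive have numbers as strong as hits; positive values seem to mean higher polarization but the record does not say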
# UCH37 inh: inhibitors of human deubiquitinating enzyme UCH37. Q9Y5K5. hit rate 0.33% among 330,000. inhibition, % (no concentration beside the values). purified proteasome/UCH37, Ub-AMC cleavage fluorescence;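 active = mean of two replicates above 20%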;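 also: 0% = compound-free wells with enzyme and 100% = wells lacking proteasome; stock transfer was 100 nL into about 20 µL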
# Target sequence (Q9Y5K5 whole entry, looked up): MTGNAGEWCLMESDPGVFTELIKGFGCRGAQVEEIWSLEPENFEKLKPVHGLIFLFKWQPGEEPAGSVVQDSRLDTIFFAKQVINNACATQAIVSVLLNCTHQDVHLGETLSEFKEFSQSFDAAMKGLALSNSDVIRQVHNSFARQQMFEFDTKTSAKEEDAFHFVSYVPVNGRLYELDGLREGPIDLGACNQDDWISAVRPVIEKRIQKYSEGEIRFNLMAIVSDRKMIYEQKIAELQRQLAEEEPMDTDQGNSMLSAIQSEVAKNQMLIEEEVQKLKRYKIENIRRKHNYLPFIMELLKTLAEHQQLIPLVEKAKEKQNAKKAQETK
#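 Test system – human UCH37 enzyme supplied as purified proteasome complex · Incubation – 30 min preincubation with enzyme, 25 min cleavage at room temperature · Detection – AMC fluorescence from Ub-AMC cleavage, excitation 355 nm, emission 460 nm · Benchmarks – no-proteasome wells (full inhibition) and compound-free wells (no inhibition)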
# Ecoli growth: E. coli growth inhibition; Escherichia coli growth, OD600, 23 h; stronger effect = lower value; OD600 absorbance (no concentration beside the values); hit rate 0.21% among 330,000;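 active = OD600 absorbance below the run mean of sample wells minus 3.6 SD, in any replicate, cut at about 0.56 in these data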;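 also: stock transfer was 300 nL into about 60 µL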
# FGF22 binding: FGF22 (human) thermal shift binding; recombinant FGF22 thermal shift, SYPRO orange fluorescence; percent of sucrose octasulfate shift, DMSO zero; hit rate 1.5% among 340,000; Q9HCT0; calls only at 9.99 µM;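 active = melting point raised past a set limit in the mean and every replicate; inconclusive = no clear call; three in four hits are not shown here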
# AF4-AF9 inh: inhibitors of human MLL-AF4/AF9 interaction. AID 651704. inhibition, % at 10 µM. hit rate 0.47% among 350,000. AlphaScreen, biotin-AF4 peptide binding to FLAG-AF9. P42568;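 active = every replicate reaching a set inhibition limit, whatever the replicate mean, cut at about 25% in these data; inconclusive = mean inhibition reaches that limit but some replicates miss it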;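 also: 0% = plate neutral control median and 100% = total signal loss; the record names both 10 and 1 µM as test concentration; the first replicate is given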
# Target sequence (P42568 whole entry, looked up): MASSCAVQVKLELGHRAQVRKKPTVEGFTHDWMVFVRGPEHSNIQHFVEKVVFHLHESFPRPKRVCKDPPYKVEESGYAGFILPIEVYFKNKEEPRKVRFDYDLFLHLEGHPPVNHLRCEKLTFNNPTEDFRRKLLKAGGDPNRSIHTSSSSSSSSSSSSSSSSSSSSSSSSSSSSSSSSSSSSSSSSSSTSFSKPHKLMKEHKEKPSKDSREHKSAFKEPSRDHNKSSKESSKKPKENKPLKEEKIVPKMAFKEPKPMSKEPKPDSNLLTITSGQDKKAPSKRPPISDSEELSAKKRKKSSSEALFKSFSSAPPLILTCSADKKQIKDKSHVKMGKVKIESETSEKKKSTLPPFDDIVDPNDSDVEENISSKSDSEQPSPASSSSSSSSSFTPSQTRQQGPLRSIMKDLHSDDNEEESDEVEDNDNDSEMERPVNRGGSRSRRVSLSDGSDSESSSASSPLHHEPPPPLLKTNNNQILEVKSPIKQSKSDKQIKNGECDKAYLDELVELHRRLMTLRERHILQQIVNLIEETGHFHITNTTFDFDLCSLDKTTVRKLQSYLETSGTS
# * hit, by the source's call; i = inactive; ? = inconclusive; / = no result given. These rows are one share of the data; the hit share may differ from the screen's.
Compound,FGF22 binding,UCH37 inh,RanGTP-Imp inh,Vif TR-FRET,AF4-AF9 inh,HNF4A DNA FP,Ecoli growth
COc1ccc(C(=O)Nc2ccc(S(=O)(=O)Nc3nccc(C)n3)cc2)cc1OC,/,1.8,0.8,?,/,3.8,0.71
CC(=O)Nc1ccc(C(=O)OCC(=O)Nc2ccc([N+](=O)[O-])cc2C(F)(F)F)cc1,/,5.8,-1.9,1%,/,3.6,0.64
COc1ccc(C(=O)C2CCCN(Cc3ccc4nonc4c3)C2)cc1OC (centres undefined),i,2.3,-3.1,/,7.9,0.1,0.66
Cc1ccc(Cl)cc1N1CCN(C(=O)C2CCN(S(=O)(=O)c3cnc[nH]3)CC2)CC1,/,2.2,/,15%,/,1.1,0.78
CC(=O)c1nn(-c2cccc(Br)c2)cc1C(=O)c1ccc(Br)cc1,/,0.3,29*,-11%,/,0.5,0.76
CC(=O)NCc1ccc(S(=O)(=O)N2CCCN(C)CC2)cc1,i,5.0,3.9,-3%,-1.7,-0.9,0.69
Cc1ccc(CCN2CC(C(=O)NCCCN3CCC(C)CC3)CC2=O)cc1 (centres undefined),i,-1.2,-1.4,-2%,-7.2,-4.8,0.71
O=C(Cc1cccc(C(F)(F)F)c1)Nc1cc(S(=O)(=O)N2CCOCC2)ccc1N1CCCC1,i,-2.5,/,/,0.3,0.0,0.68
CCCCn1c(N)c(N(CCOC)C(=O)c2cnccn2)c(=O)[nH]c1=O,i,1.1,1.1,9%,-10,-1.2,0.67
Cc1cccc(-c2nnc(SCc3cc(=O)[nH]c4ccccc34)n2C)c1,/,6.4,-2.2,15%,/,0.6,0.68
CNc1ccc(C(=O)N2CCN(S(=O)(=O)c3ccc4c(c3)OCCCO4)CC2)cc1[N+](=O)[O-],i,6.6,-1.9,9%,6.6,-0.2,0.73
Cc1cc(C)c(S(=O)(=O)c2ccccc2C)c(Oc2ccccc2)n1,/,2.0,0.2,-2%,/,1.5,0.73
CCc1cccc(C)c1NC(=O)C1CN(S(=O)(=O)c2ccccc2)CCN1S(=O)(=O)c1ccccc1 (centres undefined),/,1.1,-1.8,21%,/,1.6,0.67
Nc1c(C(=O)OCC(=O)Nc2ccc(OC(F)F)cc2)[nH]c(=O)[nH]c1=O,i,-18,/,-7%,-0.7,0.3,0.65
Cc1ccc(C(=O)COC(=O)COc2ccc(C)c(C)c2)cc1,i,1.0,-0.6,1%,-0.9,0.1,0.75
COc1ccccc1CNC(=O)c1c(-c2ccccc2)nn(-c2ccccc2)c1C,/,0.5,-0.1,-3%,/,5.5,0.71
CC1(C(=O)OCC(=O)Nc2ccc(Cl)cn2)CC1(Cl)Cl (centres undefined),i,0.4,/,/,-1.5,0.1,0.65
CCC(c1nnnn1-c1ccc2c(c1)OCCO2)N1CCN(Cc2c(F)cccc2Cl)CC1 (centres undefined),i,/,/,/,5.2,2.8,/
CN1CCN(CCCNC(=O)c2ccc(/C=C3\Sc4ccccc4N(Cc4ccccc4F)C3=O)cc2)CC1,i,-13,?,4%,36*,-3.3,0.63
CC(=O)Nc1ccc(-c2sc(Nc3ccccc3)n[n+]2C)cc1,i,-33,0.2,/,0.9,-0.9,0.71
CSc1nnc(C)c(=O)n1COC(=O)/C=C/c1ccc2c(c1)OCO2,i,-19,0.3,0%,-1.8,0.6,0.67
CN1C(=O)c2ccc(NC(=O)c3ccc(N4CCCCC4)c([N+](=O)[O-])c3)cc2C1=O,/,4.1,?,19%,/,1.6,0.73
Cn1c2ccccc2c2c(C(=O)N3CCN(c4ccccn4)CC3)cn(C3CCCC3)c(=O)c21,/,-28,3.5,2%,/,6.8,0.73
Cn1c(=O)c2cc(NC(=O)NCc3ccc(F)cc3)ccc2n1C/C=C/c1ccccc1,i,/,/,/,2.0,7.7,/
O=C(CCSc1ccccn1)Nc1ccc(Br)cc1,/,2.5,-2.0,5%,0.9,3.8,0.66
CC(C)(O)C#Cc1ccc(CN2CCN(C3CCCCC3)C(CCO)C2)cc1 (centres undefined),i,1.8,6.9,4%,2.4,2.6,0.7
CCC(C(=O)O)N1C(=O)C2CCCCC2C1=O (centres undefined),i,2.2,-3.0,/,3.2,0.2,0.68
CC(=O)Nc1ccc(NC(=O)c2c(-c3ccccc3Cl)noc2C)cc1,i,3.9,-0.2,/,0.2,4.7,0.71
CCOC(=O)c1c(C)[nH]c(C(=O)OCC(=O)N(CC(C)C)c2c(N)n(Cc3ccccc3)c(=O)[nH]c2=O)c1C,i,3.2,2.5,2%,-1.7,18,0.67
Cc1cc(C)cc(C(=O)Nc2nc3ccccc3[nH]2)c1,i,-1.5,-1.4,/,6.8,0.1,0.65
O=[N+]([O-])c1ccc(CN2[C@H](COCc3ccccc3)[C@@H](N3CCCC3)CS2(=O)=O)cc1,i,/,/,/,4.9,0.0,/
O=C(C/C=N/OCc1c(Cl)cccc1Cl)c1ccccc1,/,/,-3.0,4%,/,-1.0,/
COc1ccc(NC(=O)COC(=O)C2CCN(C(=O)c3ccc(Cl)cc3)CC2)c([N+](=O)[O-])c1,i,-0.5,/,-11%,11,0.2,0.72
COc1ccc(-c2csc(NC(=O)C3CC(=O)N(Cc4ccccc4)C3)n2)cc1OC (centres undefined),i,0.6,-2.8,/,1.5,1.4,0.67
CCN(c1ccccc1)S(=O)(=O)c1ccc(F)cc1C,/,2.6,/,-1%,/,-1.7,0.74
Cc1cc(SCc2ccccc2F)nc(=O)[nH]1,i,0.7,2.2,/,-0.8,10,0.71
O=C(Nc1ccccc1)Nc1nnc(SCc2ccc(Cl)cc2)s1,i,/,1.4,3%,1.9,1.6,/
O=C(CSc1nc2ccccc2c(=O)n1-c1ccccc1F)NC1CC1,i,2.2,/,-8%,-0.6,-0.3,0.71
O=C(CSc1nc2cccnc2n1Cc1ccccc1)N1CCCC1,/,1.1,4.6,33%,/,-0.6,0.69
Cc1ccc(C(=O)COc2ccccc2C(=O)Nc2ccccc2)cc1,/,1.2,-2.4,0%,/,4.2,0.73
CCCCCc1c(-c2ccc(F)cc2)ncn1CCc1ccccc1OC,i,/,/,/,0.8,1.4,/
COCCn1nnnc1C(c1ccccn1)N1CCN(c2cc(C)ccc2C)CC1 (centres undefined),i,1.1,-1.8,6%,9.3,3.0,0.63
COc1ccc(Oc2coc3c(CN4CCOCC4)c(O)ccc3c2=O)cc1,/,-90,-0.3,9%,/,-0.1,0.72
C/C(=N\OC(=O)c1ccccc1F)c1nccs1,/,/,0.5,1%,/,-2.2,/
NC(c1csc(NC(=O)Nc2ccc(OC(F)(F)F)cc2)n1)C1CCCCC1 (centres undefined),i,/,/,/,-4.5,1.0,/
CCC(C)c1ccc(NC(=O)C/C(C)=N/NC(=O)c2cnccn2)cc1 (centres undefined),i,/,?,/,5.7,-1.4,/
CC(C)(C)c1ccccc1NC(=O)c1ccc2c(c1)SC1=NS(=O)(=O)CCN12,i,-2.3,4.5,/,-2.4,-2.1,0.69
CCOC(=O)N1CCN(C(=O)C2CC(c3ccccc3OC)=NO2)CC1 (centres undefined),i,3.0,-0.9,1%,8.7,-3.5,0.7
COc1cc(/C=N/NC2=NCCCCC2)ccc1O,i,/,-1.6,24%,0.2,-0.7,/
COc1ccc2[nH]c3c4c(ccc3c2c1)C(=O)C=CC4=O,i,-9.6,/,1.4µM*,1.2,46*,0.67
O=C(NCCCN1CCOCC1)C(=O)N/N=C/c1cccc2ccccc12,i,/,2.4,7%,-0.3,-3.0,/
COC(=O)c1c(NC(=O)C(=O)NCC2CCCO2)sc2c1CC(C)(C)OC2 (centres undefined),i,7.0,0.3,/,-2.3,-1.3,0.61
COC(=O)[C@@H](NC(=O)Nc1ccc(C(C)=O)cc1)C(C)C,/,4.9,-2.7,-4%,/,3.0,0.73
COc1ccc(-c2nc3c4ccccc4ccn3c2CN2CCOCC2)cc1OC,i,-46,0.2,3%,5.5,0.3,0.64
O=C(NCc1cccnc1)c1cc(C2CCCN(C(=O)CCCc3ccccc3)C2)on1 (centres undefined),i,/,/,/,-6.1,-1.5,/
CCSc1nnc(NC(=O)NC2CCCCC2)s1,i,7.7,4.8,-8%,5.4,-0.6,0.72
O=C(CC(c1ccccc1)C1CCCCC1=O)c1ccccc1 (centres undefined),i,/,/,3%,-0.2,-2.6,/
O=C(CNC(=O)C(c1ccccc1)c1ccccc1)OCc1ccccc1,/,0.7,1.3,/,-1.6,1.7,0.71
CC(NC(=S)Nc1c(Cl)cccc1OC(F)F)C(C)(C)C (centres undefined),/,0.3,-2.8,0%,/,-2.4,0.72
CCOc1ccc(Nc2nc(N)c([N+](=O)[O-])c(N3CCN(CC)CC3)n2)cc1,i,6.7,-5.5,-6%,8.7,5.2,0.64

# (listing goes on)
Compound,FGF22 binding,UCH37 inh,RanGTP-Imp inh,Vif TR-FRET,AF4-AF9 inh,HNF4A DNA FP,Ecoli growth
Cc1ccc(NC(=O)C2CC(=O)N/C(=N/N=C/c3ccco3)S2)cc1 (centres undefined),/,/,4.6,14%,/,0.8,/
CCn1c(SCC(=O)Nc2cc(C)on2)nnc1-c1cccc(C)c1,i,0.3,1.2,/,-2.6,2.1,0.69
O=C(O)CC(CC(=O)O)n1cccc1,i,/,/,2%,-1.8,-8.3,/
O=C(CN(C(=O)c1csnn1)c1ccccc1F)NCc1ccccc1,i,1.3,?,/,-0.5,-3.8,0.66
C#CCNC(=O)C[C@@H]1C[C@@]2(C(=O)OC)CCCCC=C2N(Cc2ccc(Cl)cc2Cl)C1=O,i,/,/,/,3.4,-1.0,/
Cc1cnc(NC(=O)c2nn(C)cc2[N+](=O)[O-])s1,i,0.2,-2.2,13%,0.0,-4.7,0.66
CC(=NNC(=S)N1CC2CCC(CC2)C1)c1cccc(C)n1,i,/,/,-4%,3.3,-3.4,/
COc1cccc(C(O)c2nc(-c3ccc(Cl)cc3)cs2)c1 (centres undefined),i,/,/,/,-1.7,1.5,/
Cc1ccc(N2CN(Cc3ccco3)CNC2=S)cc1,i,-4.1,1.7,/,-1.2,3.2,0.71
Cc1cc(OCC(=O)NCC(C)C)cc(C)c1Br,/,0.9,4.7,-2%,/,-0.1,0.71
COc1ccc(C(=O)NC(=S)NNC(=O)c2ccc3ccccc3n2)cc1,/,2.7,2.6,32%,-2.7,0.5,0.7
CS(=O)(=O)Nc1ccccc1C(=O)Nc1ccccc1Cl,/,-6.1,2.1,?,/,1.6,0.67
N#Cc1c(-c2ccccc2)c(-c2ccccc2)n[nH]c1=O,i,-4.0,4.0,21%,-17,-0.2,0.67
CCc1nnc(NC(=O)c2ccc3c(=O)n4c(nc3c2)CCC4)s1,i,/,/,-2%,0.0,0.1,/
C=CCN1C=C2C(=O)C(C)(OC(=O)CCc3ccccc3)C(=O)C=C2C=C1c1ccc(C#N)cc1 (centres undefined),/,-31,2.5,/,/,-0.3,0.83
O=c1[nH]c(/C=C\c2cccc(C(F)(F)F)c2)nc(O)c1[N+](=O)[O-],i,11,1.1,/,-7.7,1.1,0.62
O=C(COc1ccc2ccccc2c1Br)N1CCCCC1,/,-2.7,1.8,/,/,7.6,0.64
Clc1cccc(Cl)c1CN1CCN(c2ncccn2)CC1,i,6.1,1.5,/,1.8,1.1,0.69

# Screening results: PubChem, several laboratories
